Compound activity: PubChem, several laboratories
FGF22 binding: FGF22 (human) thermal shift binding; recombinant FGF22 thermal shift, SYPRO orange fluorescence; percent of sucrose octasulfate shift, DMSO zero; AID 651658; calls only at 9.99 µM; Q9HCT0; hit rate 1.5% among 340,000;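 active = melting point raised past a set limit in the mean and every replicate; inconclusive = no clear call; three in four hits are not shown here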
Target sequence (Q9HCT0 whole entry, looked up): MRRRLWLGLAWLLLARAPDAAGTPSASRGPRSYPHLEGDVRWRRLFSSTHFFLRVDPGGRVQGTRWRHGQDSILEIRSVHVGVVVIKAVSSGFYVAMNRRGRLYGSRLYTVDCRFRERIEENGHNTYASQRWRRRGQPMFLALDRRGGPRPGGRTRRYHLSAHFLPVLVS
AF4-AF9 inh: inhibitors of human MLL-AF4/AF9 interaction. P42568. AlphaScreen, biotin-AF4 peptide binding to FLAG-AF9. inhibition, % at 10 µM. hit rate 0.47% among 350,000;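 active = every replicate reaching a set inhibition limit, whatever the replicate mean, cut at about 25% in these data; inconclusive = mean inhibition reaches that limit but some replicates miss it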;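 note: 0% = plate neutral control median and 100% = total signal loss; the record names both 10 and 1 µM as test concentration; the first replicate is given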
HNF4A DNA FP: change in binding of human HNF4 alpha to DNA; P41235; HNF4a-FITC DNA binding, fluorescence polarization, 1 h; activity change, % at 10 µM; hit rate 0.3% among 360,000; AID 1224865; in the data active = activity change above about 30%, passing the limit was not always enough;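 note: controls were the assay level and a saturating level of protein; the project sought stronger binding though the title names inhibitors; some compounds called inactive have numbers as strong as hits; positive values seem to mean higher polarization but the record does not say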
Target sequence (P41235 whole entry, looked up): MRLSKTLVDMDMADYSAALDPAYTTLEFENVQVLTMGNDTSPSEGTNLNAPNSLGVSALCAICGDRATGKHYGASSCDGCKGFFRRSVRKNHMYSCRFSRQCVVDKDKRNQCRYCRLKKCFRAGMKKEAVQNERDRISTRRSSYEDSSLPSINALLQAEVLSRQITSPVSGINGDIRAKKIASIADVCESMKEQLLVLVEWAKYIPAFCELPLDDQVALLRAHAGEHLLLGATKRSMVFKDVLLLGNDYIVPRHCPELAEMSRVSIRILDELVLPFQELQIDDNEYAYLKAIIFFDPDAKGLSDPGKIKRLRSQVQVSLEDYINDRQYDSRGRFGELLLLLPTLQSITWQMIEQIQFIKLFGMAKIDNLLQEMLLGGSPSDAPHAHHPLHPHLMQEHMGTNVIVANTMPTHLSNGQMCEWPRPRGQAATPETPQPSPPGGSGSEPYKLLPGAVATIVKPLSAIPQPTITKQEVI
rRNA inh HTS: selective bacterial rRNA inhibition in E. coli; E. coli WT GFP vs humanized-ribosome RFP mutants, fluorescence, 24 h; hits give low values; DMSO median 0, no signal -100; GFP signal change (wild-type ribosome), % (test concentration not listed); hit rate 1.6% among 350,000; AID 720706;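 active = significant combined selectivity score with lowered wild-type GFP, culture density cut under 30%, mutant RFP and density less affected; inactive = any of these conditions unmet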; note: one replicate is shown; some compounds called inactive have numbers as strong as hits
E coli growth: inhibitors of Escherichia coli growth; hit rate 0.21% among 330,000; OD600, 23 h; hits give low values; AID 1053175; OD600 absorbance (test concentration not listed);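 active = OD600 absorbance below the run mean of sample wells minus 3.6 SD, in any replicate, cut at about 0.56 in these data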;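 note: stock transfer was 300 nL into about 60 µL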
Vif A3G: inhibitors of Vif binding to APOBEC3G peptide, primary screen, biochemical, TR-FRET, GST-Vif 1-94, biotin-A3G peptide, dose response retest (AID 1117319) | inhibition, %; hits with a dose series show IC50 in µM | TR-FRET GST-Vif / biotin-A3G peptide binding; higher % means a stronger effect; test concentration not given here; strong numbers were not always called active | hit rate 0.57% among 260,000;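 active = above the screen mean plus three standard deviations and confirmed in dose response; inconclusive = results disagree or hit not tested in dose response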;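 note: Vif residues 1-94 fused to GST binding biotinylated APOBEC3G peptide 110-148; 0% = full assay without inhibitor and 100% = GST in place of GST-Vif; retest series ran down from 100 µM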
ALR H2O2 inh: human ALR oxidase inhibition via reduced H2O2; P55789; inhibition, % (concentration not given with the values); purified ALR, DTT oxidation, H2O2 HRP-luminol luminescence; hit rate 3.8% among 290,000; AID 485317;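 active = mean and each replicate at 75% or more; inconclusive = only one of the two met; inactive = neither met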;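 note: stock transfer was 7.5 nL into about 7.5 µL; 0% = neutral wells and 100% = wells with inactivated enzyme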
Target sequence (P55789 whole entry, looked up): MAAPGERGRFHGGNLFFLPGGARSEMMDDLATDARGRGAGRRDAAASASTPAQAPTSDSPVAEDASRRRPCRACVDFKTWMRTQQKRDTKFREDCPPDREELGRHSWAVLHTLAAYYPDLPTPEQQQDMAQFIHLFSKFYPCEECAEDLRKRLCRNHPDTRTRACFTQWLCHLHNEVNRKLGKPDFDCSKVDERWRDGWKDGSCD
rRNA inh HTS OD600: further read-out of rRNA inh HTS, marked with its call; OD600 change, %; measured here: OD600 growth;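 optical density of the mix in the first replicate; 0 = DMSO median and -100 = no signal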
rRNA inh HTS RFP: also measured in rRNA inh HTS; calls as there; RFP signal change, %; measured here: RFP humanized mutant strains;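 first replicate; 0 = DMSO median and -100 = no signal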
Active calls of the source: *; i = inactive; u = inconclusive; x = no result given.

Sample of the layout (2 entries):
SMILES	FGF22 binding	AF4-AF9 inh	HNF4A DNA FP	rRNA inh HTS	rRNA inh HTS OD600	rRNA inh HTS RFP	E coli growth	Vif A3G	ALR H2O2 inh
O=c1c2ccccc2nc2ccccn12	i	-0.7	0.5	19	5	4.4	0.69	17%	0
COc1ccccc1C(=O)NC(=O)CSc1nc2nc(C)cc(C)n2n1	i	-0.5	-4.6	4	8	-1.9	0.69	x	-2

Main list, from the start:
SMILES	FGF22 binding	AF4-AF9 inh	HNF4A DNA FP	rRNA inh HTS	rRNA inh HTS OD600	rRNA inh HTS RFP	E coli growth	Vif A3G	ALR H2O2 inh
O=c1c2ccccc2nc2ccccn12	i	-0.7	0.5	19	5	4.4	0.69	17%	0
COc1ccccc1C(=O)NC(=O)CSc1nc2nc(C)cc(C)n2n1	i	-0.5	-4.6	4	8	-1.9	0.69	x	-2
COc1ccc2c3c(n(C)c2c1)[C@@H](CO)N(C)CC31CCN(C(=O)c2cccnc2)CC1	i	-3.8	x	4	12	-0.5	x	x	x
C[C@@H]1CN([C@H](C)CO)C(=O)c2cc(NS(=O)(=O)c3ccc(Cl)cc3)ccc2O[C@@H]1CN(C)S(=O)(=O)c1cn(C)cn1	i	-4.3	x	-1	3	3.0	x	x	x
Cc1noc(C)c1COc1cccc(C(=O)NCc2cccc(Cl)c2)c1	x	x	5.5	x	x	x	0.72	2%	-2
CCN1C(=O)c2cccc3c(S(=O)(=O)NC(Cc4ccccc4)C(=O)O)ccc1c23 (centres undefined)	i	-19	-3.9	-2	10	-3.5	0.72	x	-25
CCc1ccccc1N(C(=O)c1cccs1)C1C=CS(=O)(=O)C1 (centres undefined)	x	x	-2.4	x	x	x	0.67	-1%	-8
O=C(Nc1ccccc1F)N1C[C@@H]2[C@H](c3ccccc31)[C@@H](CO)N2C(=O)C1CCCCC1	i	-0.5	x	-2	-11	-1.7	x	x	x
CC(=NCCCNC1CCCCC1)C1=C(O)CC(C)(C)CC1=O	x	x	2.9	x	x	x	0.68	u	-1
Cc1[nH]c2ccc(C(=O)N3CCN(c4ccc(F)cc4)CC3)cc2c1C	i	-4.2	-1.2	8	-26	-2.0	0.64	x	11
CN(CCOc1ccccc1)S(=O)(=O)c1ccc2oc3ccccc3c2c1	x	x	-1.2	x	x	x	0.69	-3%	-4
CC(C)Nc1nc(NC(C)C)nc(N(C#N)CCOc2ccc(Cl)cc2Cl)n1	x	x	-2.2	x	x	x	0.64	5%	5
COc1ccccc1-c1csc(NC(=O)c2cc(-c3cccs3)nc3ccccc23)n1	i	-3.2	1.6	19	12	3.3	0.73	-7%	-30
CCOc1ccc(N(CC(=O)Nc2ccccc2C(=O)NCc2ccco2)S(C)(=O)=O)cc1	x	x	2.2	x	x	x	0.66	74%	-22
CCOC(=O)c1c(NC(=O)CSc2nnc(-c3cccc(C)c3)n2CC)sc(C(C)=O)c1C	x	x	11	x	x	x	0.79	-11%	-11
CC(C)c1ccc(NC(=O)CN2C(=O)c3ccccc3S2(=O)=O)cc1	i	0.6	-0.6	-8	-9	-1.5	0.66	x	3
COc1ccc(N(C)C(=O)CCS(=O)(=O)c2cccc3nsnc23)cc1	i	-3.7	0.3	-2	1	-2.4	0.66	x	-9
COc1ccc(NC(=O)C2CCN(S(=O)(=O)c3cccc4nonc34)CC2)c(OC)c1	i	-0.3	2.7	0	0	5.6	0.68	-2%	-23
COc1ccc(-c2cc(=O)n(CCC#N)[nH]2)cc1	x	x	2.5	x	x	x	0.7	8%	16
COCCn1c(SCCOc2ccccc2)nc2ccccc2c1=O	i	-12	2.8	-17	-10	-3.0	0.68	1%	-68
CN(C(=O)CN1C(=O)NC2(CCCc3ccccc32)C1=O)C1CCCCC1 (centres undefined)	i	-0.2	1.7	-5	-4	-1.6	0.72	x	2
NC(=O)c1c(N)[nH]c(C(=O)c2ccccc2)c1-c1ccc2ccccc2c1	x	-4.5	x	-3	6	8.6	x	x	x
Cc1ccc(S(=O)(=O)N(C)C[C@@H]2Oc3ccc(NC(=O)Nc4ccc(C(F)(F)F)cc4)cc3CC(=O)N([C@H](C)CO)C[C@@H]2C)cc1	i	-4.7	x	3	-3	0.2	x	x	x
O=C(O)CN1C(=O)C(=O)N(Cc2ccccc2F)C1=O	i	0.5	-4.2	1	14	0.2	0.68	-5%	-1
COCCCNCCOc1ccc(C(C)(C)c2ccccc2)cc1	i	5.5	2.1	-43	-71	-30	0.61	-4%	-4
CCOC(=O)CN(C(=O)CCC(=O)Nc1cc(C)on1)C(C(=O)NC1CCCC1)c1cccnc1 (centres undefined)	x	x	3.1	x	x	x	0.71	-3%	x
O=C(NCc1ccccn1)c1ccccc1OCc1ccc(Cl)cc1Cl	i	0.4	5.8	-6	-16	1.4	0.71	x	14
Cc1ccc(CC(=O)N/N=C/c2ccc(OC(=O)c3ccc([N+](=O)[O-])cc3)cc2)cc1	i	-1.1	-6.2	x	x	x	x	x	-13
CC(=O)N1CCN(C(=O)c2ccc(C(=O)c3ccccc3)cc2)CC1	i	-1.8	1.6	7	14	1.0	0.66	11%	-1
O=C(COC(=O)c1ccc(F)c(S(=O)(=O)N2CCOCC2)c1)NCc1ccc(F)cc1	i	9.9	0.1	1	0	1.7	0.69	-7%	-5
CC(=O)c1ccc(-c2nnc(CCC(=O)N(C)Cc3cccc4cnccc34)o2)s1	i	1.7	7.3	10	10	3.4	0.66	8%	1
COc1ccccc1Oc1nc2c(c(=O)n(Cc3ccccc3F)c(=O)n2C)n1C	x	x	-5.7	x	x	x	0.72	29%	-8
COCCCN(Cc1cccs1)S(=O)(=O)c1csc(C(N)=O)c1	i	1.9	0.2	2	-4	0.3	0.7	x	-4
O=C(NCCOc1ccc(Cl)cc1)C1CC(=O)N(c2ccc3c(c2)OCCO3)C1 (centres undefined)	i	1.6	3.3	-5	-22	0.3	0.72	x	x
Cc1ccccc1-c1cnc(C(O)c2ccc(Cl)cc2C)[nH]1 (centres undefined)	i	6.9	-2.5	-48	-78	-18	x	x	x
NC(=O)C1CCN(c2ccc(S(=O)(=O)N3CCC(Cc4ccccc4)CC3)cn2)CC1	x	-1.1	-6.2	26	19	1.1	0.75	x	x
Cc1ccc(N2CC(C(=O)Nc3ccc(S(=O)(=O)Nc4ncccn4)cc3)CC2=O)cc1C (centres undefined)	i	0.3	1.9	5	5	2.6	0.71	x	x
CCCCCCN1C(=O)C(O)=C(C(C)=O)C1c1ccccc1[N+](=O)[O-] (centres undefined)	x	-2.3	-1.3	-9	-14	-0.7	0.68	0%	x
CCOc1ccc(C2CC(=O)NC3=C2C(=O)CCC3)cc1Cl (centres undefined)	x	x	2.4	x	x	x	0.72	1%	-6
CC1(C)Cc2c(sc(NC(=O)/C=C/C(=O)O)c2C#N)CO1	i	-26	8.8	1	2	4.1	0.72	18%	6
CCn1nnnc1SCC(=O)N1c2ccccc2Sc2ccccc21	x	x	1.7	x	x	x	0.79	13%	-31
Cc1ccc(CNC(=O)c2ccc3c(c2)NC(=O)C(N2CCOCC2)S3)cc1 (centres undefined)	i	-2.1	3.3	-6	-3	-1.9	0.66	x	-18
C[C@H](CO)N1C[C@H](C)[C@@H](CN(C)Cc2ccc(F)cc2)Oc2cc(C#CCN(C)C)ccc2S1(=O)=O	i	22	x	-13	-31	36	x	x	x
Cc1ccccc1Nc1nc(-c2sc(NC(=O)c3ccco3)nc2C)cs1	i	1.7	12	-3	7	3.6	0.67	17%	x
O=C(N/N=C/c1ccccn1)c1cc([N+](=O)[O-])cc([N+](=O)[O-])c1	i	4.0	4.1	3	12	-1.2	x	13%	-61
O=S(=O)(/N=C(/Nc1ccc(F)cc1F)c1ccccc1)c1ccc(Br)cc1	i	-3.7	x	19	6	-7.7	x	21%	2
Nc1nc(SCC(=O)c2ccc([N+](=O)[O-])cc2)n[nH]1	i	-2.2	3.1	7	3	-1.1	0.69	29%	63
CCn1c(CCCNC(=O)c2ccco2)nc2ccccc21	i	-3.1	0.3	5	-5	0.8	0.66	x	-9
CN(C)c1ccc(C(=O)Nc2ccc(CN3CCS(=O)(=O)CC3)cc2)cc1	i	-5.2	2.9	12	3	3.8	0.6	-16%	8
CCCC#Cc1cnc2c(c1)C(=O)N([C@H](C)CO)C[C@H](C)[C@H](CN(C)S(C)(=O)=O)O2	i	-5.6	x	6	10	-1.8	x	x	x

(further entries)
SMILES	FGF22 binding	AF4-AF9 inh	HNF4A DNA FP	rRNA inh HTS	rRNA inh HTS OD600	rRNA inh HTS RFP	E coli growth	Vif A3G	ALR H2O2 inh
O=C(CS(=O)c1cccc(Cl)c1)Nc1ccccc1Cl (centres undefined)	x	x	5.8	x	x	x	0.67	0%	5
Cc1ccc(-n2nnnc2SCC#N)cc1	i	0.4	5.4	0	-1	-0.2	0.72	1%	-12
COc1ccc(C(=O)CN2C(=O)COc3ccccc32)cc1	i	-0.8	0.0	3	-8	0.4	0.68	x	-2
O=P(COCCOCCOCCOCP(=O)(c1ccccc1)c1ccccc1)(c1ccccc1)c1ccccc1	i	8.5	0.7	6	-3	3.5	0.52	-2%	-1
CC(C)CC#Cc1cnc2c(c1)C(=O)N([C@@H](C)CO)C[C@@H](C)[C@H](CN(C)C(=O)Cc1ccncc1)O2	i	1.7	x	0	8	-1.6	x	x	x
CC(=O)c1ccc(NC(=O)CSc2nc(=O)n(CCN3CCOCC3)c3c2CCC3)cc1	i	0.8	-0.4	1	0	-1.6	0.66	13%	98*
C/C=C/c1ccc2c(c1)O[C@H](CN(C)Cc1ccc(C(=O)O)cc1)[C@@H](C)CN([C@@H](C)CO)S2(=O)=O	i	-6.8	x	-1	-1	-1.2	x	x	x
C[C@H](CO)N1C[C@H](C)[C@@H](CN(C)S(=O)(=O)c2cccs2)Oc2ccc(NC(=O)Nc3ccccc3)cc2CC1=O	i	-0.6	x	-1	-1	2.4	x	x	x
Cc1c(NC(=O)C(C)Oc2cccc(Cl)c2)c(=O)n(-c2ccccc2)n1C (centres undefined)	x	-1.1	0.4	3	0	0.1	0.69	3%	x
C=CCOCCn1[nH]c2ccccc2c1=O	i	x	3.2	6	4	-1.7	0.62	x	x
CC(=O)Nc1ccc(NC(=O)CSc2nc3c([nH]c4ccccc43)c(=O)n2-c2ccccc2F)cc1	i	-5.1	-0.9	-7	-4	-1.2	0.72	-1%	0
Cc1ccccc1CNC(=O)C1CCC(=O)N(Cc2cccc(F)c2)C1 (centres undefined)	i	3.7	5.0	7	10	2.7	0.67	x	-1
O=[N+]([O-])c1ccccc1Nc1c2ccccc2nc2ccccc12	i	0.1	1.5	10	8	1.7	0.66	-2%	2
O=S(=O)(N[C@H]1CC[C@@H](CCn2cc(-c3cccc(F)c3)nn2)O[C@H]1CO)c1ccccc1	i	0.1	x	-10	-3	-3.6	x	x	x
COc1cnc(-c2ccccc2)[nH]c1=O	i	1.5	-2.1	10	8	-1.4	0.68	u	-4
CCCCCNC(=O)C(c1ccc(C#N)cc1)n1c(=O)c(-c2ccco2)nc2ccccc21 (centres undefined)	i	-0.7	27	3	5	-0.2	x	x	x
Brc1ccc(NCc2cccc3ccccc23)nc1	x	x	-1.3	x	x	x	0.69	7%	-18
C/C(=N\NC(=O)c1c(Cl)cnn1C)c1ccc(NC(=O)c2ccncc2)cc1	x	x	3.6	x	x	x	x	8%	-3

An excerpt; rates above refer to the full screens.
